Yeast UUG start – modulators of start codon recognition fidelity in yeast; S. cerevisiae UUG-firefly luciferase reporter, luminescence/redox ratio; activity score, % at 18.7 µM; hit rate 0.13% among 350,000;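 active = replicate mean at a twofold rise or more, about +100% in these data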;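 note: firefly luciferase made from a UUG start codon reports start codon fidelity; reporter light over untreated wells divided by growth signal over untreated wells; some hits fall short of that in this replicate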
Numbers without * were called inactive.

SMILES | Yeast UUG start
O=C(C[C@@H]1CC[C@H]2[C@@H](COC[C@@H](O)CN2S(=O)(=O)c2ccc(Cl)cc2)O1)N[C@@H]1CCN(Cc2ccccc2)C1 | -4
O=C(C[C@@H]1CC[C@H]2[C@@H](COC[C@@H](O)CN2C(=O)Nc2ccccc2)O1)NCCc1ccncc1 | -13
N#Cc1ccc(-c2ccc3c(c2)[C@H]2[C@H](CCN2Cc2cncnc2)[C@H](CO)N3)cc1 | -13
O=C(c1ccccn1)N1C[C@@H]2[C@H](c3ccccc31)[C@@H](CO)N2C(=O)C1CCOCC1 | -14
N#Cc1ccc(-c2ccc3c(c2)[C@@H]2[C@@H](CCN2S(=O)(=O)c2ccccc2F)[C@@H](CO)N3)cc1 | -11
O=C(C[C@@H]1CC[C@@H]2[C@H](COC[C@H](O)CN2Cc2cccc(-c3ccncc3)c2)O1)N1CCCCC1 | 2
CN1c2ccc(-c3cccc(F)c3)cc2[C@H]2[C@H](CCN2C(=O)c2ccncc2)[C@H]1CO | 8
C[C@H](CO)N1C[C@H](C)[C@@H](CN(C)S(=O)(=O)c2cn(C)cn2)Oc2ccc(NC(=O)c3ccncc3)cc2C1=O | -22
CCCNC(=O)N1[C@@H]2CN(C(=O)C3CC3)c3ccccc3[C@@H]2[C@@H]1CO | 4
O=C(C[C@H]1CC[C@@H]2[C@H](COC[C@H](O)CN2CC2CCCCC2)O1)NCC1CC1 | -8
CO[C@H]1CN(C)C(=O)c2ccc(NC(C)=O)cc2OC[C@@H](C)NC[C@@H]1C | 1
CO[C@H]1CN(C)C(=O)c2ccc(NC(C)=O)cc2OC[C@@H](C)N(Cc2cc(F)ccc2F)C[C@H]1C | 37
CC(C)C(=O)Nc1ccc2c(c1)C(=O)N(C)[C@H]1CC[C@@H](CC(=O)NC3CCCC3)O[C@@H]1CO2 | 5
COc1ccc(S(=O)(=O)N2CCCCN3[C@H](CO)[C@@H](c4ccc(C5=CCCC5)cc4)[C@H]3C2)cc1 | 7
O=C(Nc1ccc(F)cc1)N1CCCCN2[C@H](CO)[C@@H](c3ccc(C#CC4CC4)cc3)[C@@H]2C1 | -5
O=C(C[C@@H]1CC[C@H]2[C@@H](COC[C@@H](O)CN2S(=O)(=O)c2ccc(F)cc2)O1)N[C@H]1CCN(Cc2ccccc2)C1 | 40
CN1C[C@H]2[C@@H](c3ccccc31)[C@H](CO)N2C(=O)Nc1ccc(F)cc1 | -10
C[C@@H]1CN([C@@H](C)CO)C(=O)c2cc(C#CCc3ccccc3)cnc2O[C@@H]1CN(C)Cc1cccc(F)c1 | -18
CO[C@H]1CN(C)C(=O)c2ccc(NC(=O)c3ccc(F)cc3)cc2OC[C@H](C)N(C(C)=O)C[C@@H]1C | -2
CCC(=O)N1[C@H](CO)[C@@H]2c3ccccc3N(C(=O)Nc3ccccc3Cl)C[C@@H]21 | -5
Cc1ccc(S(=O)(=O)N(C)C[C@@H]2Oc3ncc(C#Cc4ccc(C(F)(F)F)cc4)cc3C(=O)N([C@H](C)CO)C[C@@H]2C)cc1 | -14
CC(C)NC(=O)N1CCCCN2[C@H](CO)[C@H](c3ccc(C#CC4CC4)cc3)[C@H]2C1 | 23
CN(C)C(=O)c1cccc(-c2ccc([C@@H]3[C@H](CO)N4CCCCN(S(C)(=O)=O)C[C@@H]34)cc2)c1 | 31
CC(C)NC(=O)Nc1ccc2c(c1)C(=O)N([C@@H](C)CO)C[C@H](C)[C@@H](CN(C)S(=O)(=O)c1ccc(Cl)cc1)O2 | 0
CCCC(=O)Nc1ccc2c(c1)C(=O)N(C)C[C@@H](OC)[C@@H](C)CN(Cc1ccc(-c3ccccn3)cc1)[C@H](C)CO2 | 0

Structures from the list above that contain a cyano group, in the order listed:
SMILES | Yeast UUG start
N#Cc1ccc(-c2ccc3c(c2)[C@H]2[C@H](CCN2Cc2cncnc2)[C@H](CO)N3)cc1 | -13
N#Cc1ccc(-c2ccc3c(c2)[C@@H]2[C@@H](CCN2S(=O)(=O)c2ccccc2F)[C@@H](CO)N3)cc1 | -11

Further compounds follow:
SMILES | Yeast UUG start
C[C@H](CO)N1C[C@H](C)[C@@H](CN(C)Cc2ccncc2)Oc2ccc(NS(=O)(=O)c3ccc(F)cc3)cc2C1=O | 4
Cc1ccc(S(=O)(=O)Nc2ccc3c(c2)C(=O)N([C@H](C)CO)C[C@@H](C)[C@H](CN(C)C)O3)cc1 | -8
CS(=O)(=O)Nc1ccc2c(c1)[C@@H]1C[C@H](CC(=O)N3CCCCC3)O[C@H](CO)[C@@H]1O2 | -10
Cc1ccccc1S(=O)(=O)N1CCCCN2[C@H](C1)[C@H](c1ccc(C#CCN(C)C)cc1)[C@@H]2CO | 11
Cc1cccc(-c2ccc([C@H]3[C@@H](CO)N4CCCCN(C(=O)c5ccc6c(c5)OCO6)C[C@H]34)cc2)c1 | 27
CCCN1[C@@H]2c3ccc(-c4ccccc4)c(=O)n3C[C@@H]2[C@@H](CO)[C@@H]1C(=O)N[C@H](C)c1ccccc1 | 15
C[C@@H]1CN([C@H](C)CO)C(=O)Cc2cc(NS(=O)(=O)c3ccccc3)ccc2O[C@@H]1CN(C)Cc1ccncc1 | -12
CC(C)NC(=O)Nc1ccc2c(c1)CC(=O)N([C@@H](C)CO)C[C@H](C)[C@H](CN(C)Cc1ccc(C(=O)O)cc1)O2 | -8
C[C@H](CO)N1C[C@H](C)[C@@H](CN(C)Cc2ccc(Cl)c(Cl)c2)Oc2ccc(NS(=O)(=O)c3cn(C)cn3)cc2C1=O | -17
CN1C(=O)c2cc(NC(=O)NC3CCCC3)ccc2OC[C@H]2O[C@@H](CC(=O)O)CC[C@H]21 | 3
CCC(=O)N1CCCCN2[C@H](CO)[C@H](c3ccc(C#Cc4ccccc4F)cc3)[C@H]2C1 | 28
OC[C@@H]1Nc2ccc(-c3cccc(F)c3)cc2[C@@H]2[C@H]1CCN2Cc1ccc(F)cc1 | -1
CO[C@H]1CN(C)C(=O)c2cc(NC(=O)C3CC3)ccc2OC[C@@H](C)N(Cc2cc(F)ccc2F)C[C@@H]1C | 14
CC(C)NC(=O)N(C)C[C@H]1Oc2c(NS(=O)(=O)c3ccccc3)cccc2C(=O)N([C@@H](C)CO)C[C@H]1C | 0
Cc1noc(C)c1NC(=O)Nc1ccc2c(c1)CC(=O)N([C@H](C)CO)C[C@@H](C)[C@@H](CN(C)Cc1ccncc1)O2 | -5
COc1ccccc1C#Cc1ccc([C@@H]2[C@@H](CO)N3CCCCN(C(=O)C4CC4)C[C@@H]23)cc1 | 19
CN1[C@@H]2CN(C(=O)c3ccc(F)cc3)c3ccccc3[C@@H]2[C@@H]1CO | -4
CC(=O)N1[C@H](CO)[C@H](c2ccc(-c3cccc(F)c3)cc2)[C@@H]1CNC(=O)C1CC1 | -1
C[C@@H]1CN([C@H](C)CO)C(=O)Cc2cc(N(C)C)ccc2O[C@H]1CN(C)Cc1ccc(-c2ccccc2)cc1 | -11
Cn1cnc(CCNC(=O)C[C@@H]2CC[C@H]3[C@@H](COC[C@H](O)CN3C(=O)Nc3ccccc3)O2)c1 | -6
O=C(C[C@H]1CC[C@@H]2[C@H](COC[C@H](O)CN2Cc2ccncc2)O1)NCc1ccncc1 | 13
CCCN1C[C@H](C)[C@H](OC)CN(C)C(=O)c2cc(NS(=O)(=O)CC)ccc2OC[C@H]1C | -2
C[C@@H]1CN([C@H](C)CO)C(=O)c2cccc(NS(=O)(=O)c3ccccc3)c2O[C@H]1CN(C)Cc1ccc(C(F)(F)F)cc1 | -3
COCC(=O)N1CC[C@H]2[C@H](CO)Nc3ccc(C#Cc4ccccc4)cc3[C@H]21 | 9
CN1c2ccc(Br)cc2[C@@H]2[C@@H](CCN2S(=O)(=O)c2ccccc2F)[C@@H]1CO | -11

5 compounds out of the list above, arranged by the value under Yeast UUG start, smallest number first:
SMILES | Yeast UUG start
C[C@H](CO)N1C[C@H](C)[C@@H](CN(C)Cc2ccc(Cl)c(Cl)c2)Oc2ccc(NS(=O)(=O)c3cn(C)cn3)cc2C1=O | -17
CN1[C@@H]2CN(C(=O)c3ccc(F)cc3)c3ccccc3[C@@H]2[C@@H]1CO | -4
CC(=O)N1[C@H](CO)[C@H](c2ccc(-c3cccc(F)c3)cc2)[C@@H]1CNC(=O)C1CC1 | -1
CO[C@H]1CN(C)C(=O)c2cc(NC(=O)C3CC3)ccc2OC[C@@H](C)N(Cc2cc(F)ccc2F)C[C@@H]1C | 14
Cc1cccc(-c2ccc([C@H]3[C@@H](CO)N4CCCCN(C(=O)c5ccc6c(c5)OCO6)C[C@H]34)cc2)c1 | 27

Going on with the list:
SMILES | Yeast UUG start
CS(=O)(=O)N1CCCCN2[C@H](CO)[C@H](c3ccc(C4=CCCC4)cc3)[C@@H]2C1 | 9
CCC(=O)Nc1ccc2c(c1)C(=O)N(C)C[C@@H](OC)[C@@H](C)CN(C(=O)COC)[C@H](C)CO2 | 2
COc1cccc(S(=O)(=O)N2C[C@H](O)COC[C@H]3O[C@H](CC(=O)N4CCCCC4)CC[C@@H]32)c1 | 2
CCS(=O)(=O)Nc1ccc2c(c1)C(=O)N(C)C[C@@H](OC)[C@H](C)CN(C(=O)C1CC1)[C@@H](C)CO2 | 8
C[C@H](NC(=O)[C@H]1N[C@H]2c3ccc(C4=CCCCC4)c(=O)n3C[C@H]2[C@@H]1CO)c1ccccc1 | 8
C[C@H]1CN([C@@H](C)CO)C(=O)c2cccc(NS(=O)(=O)c3ccccc3)c2O[C@H]1CN(C)C(=O)Nc1ccc(F)cc1 | 3
C[C@@H]1CN([C@H](C)CO)C(=O)c2cccc(NC(=O)C3CCCCC3)c2O[C@@H]1CN(C)Cc1ccncc1 | -13
C[C@H]1CN([C@@H](C)CO)C(=O)Cc2cc(NC(=O)Cc3ccccc3)ccc2O[C@@H]1CN(C)C(=O)Nc1ccc(F)cc1 | 3
C[C@H](CO)N1C[C@H](C)[C@@H](CN(C)S(=O)(=O)c2ccc(Cl)cc2)Oc2ccc(NC(=O)CCN3CCOCC3)cc2C1=O | 8
C[C@@H](O)C#Cc1ccc([C@@H]2[C@H](CO)N3CCCCN(C(=O)c4ccc5c(c4)OCO5)C[C@@H]23)cc1 | -3
COCC(=O)NC[C@H]1[C@H](c2ccc(C3=CCCC3)cc2)[C@@H](CO)N1C(=O)C1CC1 | 1
O=C(Nc1cccc(Cl)c1)N1C[C@@H]2[C@H](c3ccccc31)[C@H](CO)N2C(=O)c1cccnc1 | -16
C[C@H](CO)N1C[C@H](C)[C@H](CN(C)C)Oc2ccc(NS(=O)(=O)c3ccc(Cl)cc3)cc2C1=O | 17
O=C(C[C@H]1C[C@@H]2c3cc(NC(=O)C4CCOCC4)ccc3O[C@@H]2[C@H](CO)O1)NC1CCCCC1 | -1
O=C(CC(F)(F)F)N1C[C@@H]2[C@H](c3ccccc31)[C@H](CO)N2C(=O)C1CC1 | 34
CCCNC(=O)N1C[C@@H](C)[C@@H](OC)CN(C)C(=O)c2cc(NC(=O)CC)ccc2OC[C@@H]1C | -10
CO[C@@H]1CN(C)C(=O)c2cc(NC(=O)Nc3ccccc3)ccc2OC[C@@H](C)N(CC2CC2)C[C@H]1C | 1
Cc1ccc(-c2ccc([C@@H]3[C@H](CO)N4CCCCN(C(=O)Nc5ccccc5)C[C@@H]34)cc2)cc1 | -7
CCCNC(=O)Nc1ccc2c(c1)OC[C@H](C)N(Cc1ccccc1)C[C@@H](C)[C@@H](OC)CN(C)C2=O | 13
C[C@H](CO)N1C[C@H](C)[C@H](CN(C)CC2CC2)OCc2cn(nn2)CCCC1=O | -4
COc1ccc(NC(=O)N2C[C@H](O)COC[C@@H]3O[C@@H](CC(=O)N4CCOCC4)CC[C@H]32)cc1 | 3
COCC(=O)Nc1ccc2c(c1)[C@@H]1C[C@@H](CC(=O)NCC3CC3)O[C@@H](CO)[C@@H]1O2 | -15
COCC(=O)Nc1ccc2c(c1)C(=O)N(C)C[C@@H](OC)[C@@H](C)CN(Cc1cccc(F)c1)[C@@H](C)CO2 | 12
CCCNC(=O)N1[C@H](CO)[C@H](c2ccc(C3=CCCC3)cc2)[C@@H]1CNC(C)=O | 1
C[C@@H]1CN([C@@H](C)CO)C(=O)c2cc(NS(=O)(=O)c3cn(C)cn3)ccc2O[C@H]1CN(C)Cc1ccc(-c2ccccc2)cc1 | -7
Next section:
SMILES | Yeast UUG start
Cc1ccccc1S(=O)(=O)N1CC[C@@H]2[C@H]1c1cc(-c3ccc(F)cc3)ccc1N(C)[C@H]2CO | -12
C[C@@H](O)C#Cc1ccc([C@H]2[C@@H](CO)N3CCCCN(S(=O)(=O)Cc4ccccc4)C[C@H]23)cc1 | 3
CCC(=O)Nc1ccc2c(c1)C(=O)N(C)C[C@@H](OC)[C@H](C)CN(C(=O)c1ccccn1)[C@H](C)CO2 | -12
C[C@H]1CN([C@@H](C)CO)C(=O)c2cccc(NC(=O)Nc3ccc(C(F)(F)F)cc3)c2O[C@@H]1CN(C)Cc1ccc(-c2ccccc2)cc1 | -20
C[C@H](CO)N1C[C@H](C)[C@@H](CN(C)C(=O)Nc2ccc(F)cc2)Oc2ccc(NC(=O)CCN3CCOCC3)cc2C1=O | -8
CC(=O)N1[C@@H]2CN(S(=O)(=O)c3ccccc3C)c3ccccc3[C@@H]2[C@@H]1CO | 4
C[C@@H]1CN([C@H](C)CO)C(=O)Cc2cc(N(C)C)ccc2O[C@H]1CN(C)S(=O)(=O)c1ccc(F)cc1 | 6
COc1cccc(-c2ccc3c(c2)[C@H]2[C@H](CCN2C(=O)NC2CCCC2)[C@H](CO)N3C)c1 | 4
Cc1cc(C(=O)Nc2cccc3c2O[C@@H](CN(C)Cc2ccc(-c4ccccc4)cc2)[C@H](C)CN([C@@H](C)CO)C3=O)n(C)n1 | 0
CCCN1[C@@H]2Cn3c(ccc(C4=CCCCC4)c3=O)[C@H]1[C@@H](C(=O)NCC)[C@@H]2CO | 5
COc1ccccc1S(=O)(=O)N1CC[C@H]2[C@H](CO)Nc3ccc(Br)cc3[C@H]21 | -11
Cc1ccccc1-c1ccc([C@H]2[C@@H](CO)N3CCCCN(C(=O)Nc4ccccc4)C[C@H]23)cc1 | 6

A portion of the library (hit frequency here may not be typical).
